KCNQ2 enhance – KCNQ2 (rat) channel potentiation. actives 0.54% (n = 310,000). CHO-K1 KCNQ2, FluxOR thallium flux fluorescence; stronger effect = higher value. B-score at 10 µM. O88943;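 active means fluorescence ratio B-score at least 3 SD of library B-scores, with initial fluorescence B-score within 3 SD, cut at about 5.3 in these data; same plate scores as AID 2156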;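 further: B-score of peak minus minimum over baseline fluorescence ratio after K+ and Tl+ stimulus; positive B-score means potentiation of KCNQ2 with more thallium influx and brighter signal; only the inactives scoring about 0 or higher are listed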
Target sequence (O88943 whole entry, looked up): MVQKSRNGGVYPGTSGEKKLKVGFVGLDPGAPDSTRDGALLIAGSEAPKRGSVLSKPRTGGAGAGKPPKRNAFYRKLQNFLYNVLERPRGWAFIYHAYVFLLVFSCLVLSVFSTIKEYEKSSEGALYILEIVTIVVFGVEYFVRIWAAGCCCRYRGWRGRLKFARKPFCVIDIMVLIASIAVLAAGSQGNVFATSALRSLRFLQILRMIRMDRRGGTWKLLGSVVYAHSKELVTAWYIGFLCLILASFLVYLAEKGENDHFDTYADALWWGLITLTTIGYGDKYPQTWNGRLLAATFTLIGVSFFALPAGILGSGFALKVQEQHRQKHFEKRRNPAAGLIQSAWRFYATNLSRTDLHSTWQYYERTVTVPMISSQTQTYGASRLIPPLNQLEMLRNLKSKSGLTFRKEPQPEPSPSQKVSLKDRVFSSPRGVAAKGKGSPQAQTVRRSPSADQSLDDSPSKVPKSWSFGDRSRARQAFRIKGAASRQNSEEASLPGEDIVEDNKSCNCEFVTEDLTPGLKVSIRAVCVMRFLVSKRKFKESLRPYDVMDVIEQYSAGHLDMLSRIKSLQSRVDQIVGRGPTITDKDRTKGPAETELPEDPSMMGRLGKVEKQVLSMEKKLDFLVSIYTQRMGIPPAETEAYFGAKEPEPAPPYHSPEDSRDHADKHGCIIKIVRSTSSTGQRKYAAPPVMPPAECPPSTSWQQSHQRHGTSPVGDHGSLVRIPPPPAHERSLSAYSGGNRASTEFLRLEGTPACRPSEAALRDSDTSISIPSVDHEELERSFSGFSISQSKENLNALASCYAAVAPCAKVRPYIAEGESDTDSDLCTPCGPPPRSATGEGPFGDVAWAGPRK
KCNQ2 enhance baseline – second read-out of KCNQ2 enhance, no call of its own (marks repeat the call); B-score; compound at 10 µM; measured here: initial fluorescence intensity artifact check;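 brightness before thallium and not channel activity; 0 = typical well and far values either way flag optical interference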
* marks the source's active call; other numbers are inactive results. A portion of the library; rates above refer to the full screens.

Preview, 17 compounds:
SMILES	KCNQ2 enhance	KCNQ2 enhance baseline
O=C(O)CSC(C(=O)Nc1ccc(Br)cc1)c1ccccc1 (stereo not given)	0.11	0.43
CCCCN(C)Cc1c(C)[nH]c2ccc(Cl)cc2c1=O	0.88	-0.29
Cc1ccc(-c2c[n+](CC(=O)Nc3nc(-c4ccccc4)cs3)c3n2CCC3)cc1	0.07	-1.42
Cc1cc(NC(=O)CSc2nc3ccccc3c(=O)n2C2CCCC2)no1	0.48	-0.14
O=C(c1ccc(O)cc1)c1ccc(O)cc1O	1	0.19
COc1ccccc1-c1noc2ncnc(Nc3ccccc3C)c12	0.77	0.72
CCN(CC1CCCN(CCc2cccc(OC)c2)C1)C(=O)c1ccoc1 (stereo not given)	1.33	-0.02
COc1ccc2cc(CN(CC3CCCO3)S(=O)(=O)c3ccccc3Cl)c(=O)[nH]c2c1 (stereo not given)	0.71	1.01
Cc1onc(-c2ccccc2Cl)c1C(=O)Nc1ccccc1C(N)=O	1.56	-0.28
COc1ccc(-c2c[n+]3c(n2-c2c(C)n(C)n(-c4ccccc4)c2=O)CCCCC3)cc1	0.18	-0.83
NC(=O)C1CCCN(C(=S)Nc2cccc3ccccc23)C1 (stereo not given)	1.98	-0.47
COc1cc(CCCN2C(=S)NC[C@@H]2c2ccccc2)cc(OC)c1OC	2.26	-1.23
Cn1c(N)c(C(=O)COC(=O)c2ccc([N+](=O)[O-])o2)c(=O)n(C)c1=O	0.62	-0.23
COc1cccc(-n2cnc3sc(C)cc3c2=O)c1	0.76	0.98
Cc1csc(C(=O)O)c1-n1cccc1	0.05	0.43
CN(c1ccccc1)S(=O)(=O)c1ccc(NC(=O)c2ccccc2C(=O)O)cc1	2.43	0.23
Cc1ccc(/C=C2\CCn3c2nc2cc(C(=O)O)ccc2c3=O)c(C)c1	0.59	-0.26

The whole of this part, from the first entry:
SMILES	KCNQ2 enhance	KCNQ2 enhance baseline
O=C(O)CSC(C(=O)Nc1ccc(Br)cc1)c1ccccc1 (stereo not given)	0.11	0.43
CCCCN(C)Cc1c(C)[nH]c2ccc(Cl)cc2c1=O	0.88	-0.29
Cc1ccc(-c2c[n+](CC(=O)Nc3nc(-c4ccccc4)cs3)c3n2CCC3)cc1	0.07	-1.42
Cc1cc(NC(=O)CSc2nc3ccccc3c(=O)n2C2CCCC2)no1	0.48	-0.14
O=C(c1ccc(O)cc1)c1ccc(O)cc1O	1	0.19
COc1ccccc1-c1noc2ncnc(Nc3ccccc3C)c12	0.77	0.72
CCN(CC1CCCN(CCc2cccc(OC)c2)C1)C(=O)c1ccoc1 (stereo not given)	1.33	-0.02
COc1ccc2cc(CN(CC3CCCO3)S(=O)(=O)c3ccccc3Cl)c(=O)[nH]c2c1 (stereo not given)	0.71	1.01
Cc1onc(-c2ccccc2Cl)c1C(=O)Nc1ccccc1C(N)=O	1.56	-0.28
COc1ccc(-c2c[n+]3c(n2-c2c(C)n(C)n(-c4ccccc4)c2=O)CCCCC3)cc1	0.18	-0.83
NC(=O)C1CCCN(C(=S)Nc2cccc3ccccc23)C1 (stereo not given)	1.98	-0.47
COc1cc(CCCN2C(=S)NC[C@@H]2c2ccccc2)cc(OC)c1OC	2.26	-1.23
Cn1c(N)c(C(=O)COC(=O)c2ccc([N+](=O)[O-])o2)c(=O)n(C)c1=O	0.62	-0.23
COc1cccc(-n2cnc3sc(C)cc3c2=O)c1	0.76	0.98
Cc1csc(C(=O)O)c1-n1cccc1	0.05	0.43
CN(c1ccccc1)S(=O)(=O)c1ccc(NC(=O)c2ccccc2C(=O)O)cc1	2.43	0.23
Cc1ccc(/C=C2\CCn3c2nc2cc(C(=O)O)ccc2c3=O)c(C)c1	0.59	-0.26
CCOc1ccc(NC(=O)CN(C)C(=O)c2ccccc2-n2cnnn2)cc1OCC	0.52	2.61
O=C1c2ccccc2C(=O)N1CCc1csc(-c2ccc(F)cc2)n1	0.03	-1.56
O=C(O)CSc1c2c(nc3cc(C(=O)Nc4ccc(F)c(Cl)c4)ccc13)CCCC2	0.36	0.62
O=C(NCc1ccc2c(c1)CCO2)Nc1cccc(C(F)(F)F)c1	7.06*	-0.08*
CN1c2ccccc2C(=O)/C(=C\Nc2ccc(F)cc2)S1(=O)=O	0.72	0.53
CCOC(=O)c1cn2nc(Oc3ccccc3)ccc2n1	0.24	1.52
CCSc1ccccc1C(=O)Nc1cccnc1	0.6	0.47
CSCCC(NC(N)=O)C(=O)Nc1ccc2ccccc2c1 (stereo not given)	0.79	1.06
SMILES	KCNQ2 enhance	KCNQ2 enhance baseline
Nc1nonc1C(=O)N/N=C/c1ccncc1	0.55	-1.78
Cc1ccc(CSCC2Nc3ccc(C(=O)N4CCN(c5cccc(C)c5)C(C)C4)cc3NC2=O)cc1 (stereo not given)	1.44	0.03
CCn1c(COc2ccccc2)nnc1SCC(=O)c1cccc([N+](=O)[O-])c1	0.31	1.4
O=C1/C(=C/c2ccc(F)cc2)SC(=S)N1Nc1ncc(C(F)(F)F)cc1Cl	0.03	0.8
O=C(NC(Cc1ccccc1)C(=O)O)/C(=C/c1cccc([N+](=O)[O-])c1)NC(=O)c1cccc(Br)c1 (stereo not given)	0.61	-1.9
CSc1sc(-c2n[nH]c(=S)n2C)c2c1C=CCC2	0.56	0.03
CCOc1ccc(-c2cc(NC(=O)c3c(F)cccc3F)c(C(=O)O)s2)cc1	2.21	-2.13
COC(=O)c1ccccc1S(=O)(=O)NC(=O)c1ccccc1	0.46	-0.08
CCCCCCC1CC(CCc2nc(=S)[nH][nH]2)C(=O)O1 (stereo not given)	0.2	-1.27
CCn1cc(C(=O)N2CCN(Cc3ccc4c(c3)OCO4)CC2)c(=O)c2ccc(C)nc21	0.08	0.64
CC#CC(=O)NC1CCCN(C2Cc3ccccc3C2)C1 (stereo not given)	1.56	-0.7
COc1cc(CC(=O)N(c2ccccc2)c2nc(C)cs2)cc(OC)c1OC	0.39	-0.48
CC(=O)Nc1ccc(S(=O)(=O)Nc2ccc(S(=O)(=O)Nc3ncccn3)cc2)cc1	0.1	0.73
O=C(CC12CCC(CC1)C2)NCc1ccc2c(c1)OCO2	10.9*	-0.17*
OCCC1CN(Cc2cnn(-c3ccc(F)cc3)c2)CCN1Cc1ccsc1 (stereo not given)	0.46	-1.06
NC(=O)CSC1=N/C(=C\c2ccco2)C(=O)N1c1ccc(OC(F)F)cc1	0.19	0
O=C(CSc1nnnn1-c1cccc2ccccc12)N1CCOCC1	0.56	-0.55
COc1ccc(Cl)cc1-c1nc(SCC(=O)NC(C)C(C)C)n[nH]1 (stereo not given)	1.23	-0.49
COCCNC(=S)NNC(=O)c1cccs1	0.95	2.5
Cc1ccccc1NC(=O)c1ccccc1NC(=O)c1cccs1	0.01	0.93
COc1ccc(C(=O)O)nc1C	0.19	-0.15
CC(C)(C)NC(=O)c1ccc2c(c1)C(=O)N(C1CCCCC1)C2=O	0.17	1.92
COc1nccnc1NS(=O)(=O)c1ccc(N=Cc2c(C)[nH]n(-c3ccccc3)c2=O)cc1	1.74	0.3
CCOC(=O)c1cnn2cc(-c3[nH]ncc3[N+](=O)[O-])cnc12	1.79	-0.02
COc1ccccc1C(=O)Oc1ccc2ccc(=O)oc2c1	1.81	-0.09
SMILES	KCNQ2 enhance	KCNQ2 enhance baseline
CCS(=O)(=O)Nc1ccc(NC(C)=O)cc1	0.55	-0.29
Cc1nc(C(=O)Nc2ccccc2Cl)cc2c1[nH]c1ccccc12	0.41	1.05
CCOC(=O)Cc1nnc(Nc2ccc(C(=O)NC)cc2)c2ccccc12	1.86	0.04
O=C(OCc1nc2ccsc2c(=O)[nH]1)c1ccco1	0.79	0.03
Cc1nccn1CCC(=O)O	0.32	2.7
C=CCOC(=O)C1=C(C)Nc2[nH]c(=O)[nH]c(=O)c2C1c1ccccc1 (stereo not given)	0.63	1.14
Cc1cc(NC(=O)CSc2nc(-c3ccccc3)c(C#N)c(=O)[nH]2)no1	0.41	-2.12
COc1cc(C(=S)N2CCCC2)ccc1OCc1ccccc1	0.81	-0.01
CCCS(=O)(=O)N1CCCC(C(=O)NCCc2ccccc2)C1 (stereo not given)	0.04	0.96
CC1(C)CC(=O)C=C(NCc2cccs2)C1	0.7	-0.18
Cn1c(-c2ccc(Cl)nc2)nc2ccccc21	1.16	0.47
COCCNC(=O)c1onc(CSc2cccc(OC)c2)c1C(=O)NCCOC	0.03	-0.23
Cc1cc(C)nc(N2CCCC(C(=O)Nc3ccc4c(c3)OCO4)C2)n1 (stereo not given)	0.97	-0.77
Cc1cc(C(=O)OCC(=O)N2CCN(C(=O)c3ccco3)CC2)c(C)n1-c1ccc(F)cc1	0.91	0.87
Cc1ccc(CNS(=O)(=O)c2c(C(=O)N3CCCCC3)c(C)n(C)c2C)cc1	0.54	1.02
CCNCCNC(=O)c1c(O)c2cccc3c2n(c1=O)CCC3	1.29	-0.04
CCCCOC(=O)c1ccc(Nc2ccc([N+](=O)[O-])cn2)cc1	1.64	0
Cc1cc(=O)oc2c3c(cc(OCC(=O)NCc4ccco4)c12)OC(C)(C)CC3	4.67	-0.51
CCOC(=O)N1CCC(NC(=O)C2CCN(c3ccc(N4CCOCC4)nn3)CC2)CC1	1.3	-1.71
COc1ccc(CC(=O)NC(=S)Nc2ccc(S(N)(=O)=O)cc2)cc1	2.33	-0.59
CC(=O)c1cccc(NC(=O)CCn2c(=S)oc3ccccc32)c1	0.02	0.7
CCCNC(=O)c1nnsc1Sc1ccc(Cl)cc1	0.7	0.04
O=C1CSC(c2ccncc2)N1Cc1ccc(F)cc1 (stereo not given)	0.28	0.42
COc1ccnc(CS(=O)c2nc3cc(OC(F)F)ccc3[nH]2)c1OC (stereo not given)	0.6	2.56
CCc1ccc(Nc2nc(C)cc(C)n2)cc1	0.24	0.39
SMILES	KCNQ2 enhance	KCNQ2 enhance baseline
N=C1/C(=C/c2cccn2-c2cccc([N+](=O)[O-])c2)C(=O)N=C2SC=CN12	0.45	0.01
O=C(NNC(=O)c1ccc(Cl)cc1Cl)c1csc(-c2cccnc2)n1	0.74	-2.2
CC(=O)c1cccc(NC(=O)N[C@@H](CC(C)C)C(=O)O)c1	1.37	-0.31
CN1CCN(c2ccc([N+](=O)[O-])cc2NC(=O)c2ccccc2)CC1	0.31	0.55
CCOC(=O)c1sc(=S)n2c1[nH]c(=O)c1ccc(C(=O)OC)cc12	6.75*	0.01*
N#Cc1c(-c2ccc(Cl)cc2)c(C#N)c(=O)n(N)c1N	1.8	-3.49
COc1ccc(/C=N\Nc2ncc(F)c(N3CCOCC3)n2)cc1OC	0.98	-3.01
Cc1ccccc1OCC(O)Cn1c(N2CCCCC2)nc2c1c(=O)[nH]c(=O)n2C (stereo not given)	0.82	0
Cc1ccc(S(=O)(=O)N2CCCCC2C(=O)O)cc1 (stereo not given)	0.32	0.89
CC(=O)c1ccc(OCc2cc(C(=O)N3CC[C@@H]4CCCC[C@H]4C3)no2)cc1	1.19	-2.34
Cc1nc(SCC(=O)Nc2c(C)n(C)n(-c3ccccc3)c2=O)[nH]c(=O)c1Cc1ccccc1	2.14	-2.1
Cn1ncc2c(NCc3cccc(C(F)(F)F)c3)c(C(=O)O)cnc21	0.67	-0.2
Cc1cc(C)cc(N(C(=O)CNC(=O)c2ccco2)C(C(=O)NC2CCCCC2)c2ccncc2)c1 (stereo not given)	0.82	-0.05
O=C(NC(=S)Nc1ccc(S(=O)(=O)Nc2nccs2)cc1)c1ccc(Br)o1	1.06	3.67
O=C(CCC1CCCCC1)NCc1ccncc1	1.3	0.64
CC(=O)Nc1cccc(OCc2ccc(S(=O)(=O)Cc3ccccc3)cc2)c1	0.53	-0.66
Fc1ccc(Cc2nnc(-c3cccs3)o2)cc1	0.11	0.51
O=C(Nc1ccccc1[N+](=O)[O-])c1cccc(N2C(=O)CCC2=O)c1	0.37	-0.95
Nc1ccccc1C(=O)N=Nc1[nH]c(N)c2ccccc12	0.04	1.67
O=C(COC(=O)Cc1cn2ccsc2n1)NC12CC3CC(CC(C3)C1)C2	1.21	-0.19
CCc1cc2c(=O)c(-c3ccon3)c(N)oc2cc1OC	0.01	1.11
Cc1cccc(N2CCN(C(=O)c3ccc4c(c3)CCN4S(C)(=O)=O)CC2)c1C	0.22	0.46
C/C(=N\N1C(=O)c2ccccc2NC1c1ccccc1)c1ccccc1O (stereo not given)	0.15	-0.55
COc1ccc(N(CC(=O)NCc2ccccc2)S(=O)(=O)c2c(C)noc2C)cc1	0.91	-0.01
O=C(c1ccco1)N1CCN(Cc2cc(=O)c(OCc3ccccc3Cl)co2)CC1	0.8	-0.58
SMILES	KCNQ2 enhance	KCNQ2 enhance baseline
Cn1c(SCc2cccc(Cl)c2)nc(C(F)(F)F)cc1=O	0.08	-0.8
Cc1cc(C)cc(NC(=O)CSc2nnc(-c3cc(C)[nH]n3)n2N)c1	1.91	-0.67
COc1ccc(-c2noc(CCC(=O)NCC3CCCO3)n2)cc1 (stereo not given)	1.5	-0.01
CC(=O)OCC[n+]1c(C)n(-c2ccccc2)c2ccc(Cl)cc21	0.08	-0.01
Cc1cccc(NC(=O)c2ccc([N+](=O)[O-])o2)n1	0.12	-1.31
Cc1c(C)n2c(SCC(=O)N3CCN(c4ccccc4)CC3)nnc2[nH]c1=O	0.5	0.77
CC1(C)CC(=O)C2=C(C1)OC(N)=C(C#N)C2c1ccccc1 (stereo not given)	0.38	-0.71
CCOC(=O)C1(CC2CC2)CCN(Cc2cc(Cl)c(O)c(OC)c2)CC1	1.38	-0.63
Cc1ccc(NC(=O)CN2C(=O)NC3(CCCC3)C2=O)c(Cl)c1	0.14	-2.11
N#Cc1nc(-c2cccs2)oc1NCCCN1CCOCC1	1.79	-1.85
O=C(CSc1nc2cc(C(F)(F)F)ccc2n1Cc1ccccc1)NC1CCS(=O)(=O)C1 (stereo not given)	2.67	1.11
CCN(CC)CCOC(=O)c1ccc(NC(=O)C(C)NC(=O)C23CC4CC(CC(C4)C2)C3)cc1 (stereo not given)	0.01	-1.15
CN(/N=C/c1ccncc1)C1=NS(=O)(=O)c2ccccc21	0.52	0.06
O=C(CSc1nnc(CNC(=O)c2c(F)cccc2Cl)o1)Nc1ccc2c(c1)OCCO2	0.05	-1.79
